Bioassay records deposited in PubChem by PCMD.
Calb biofilm kill: mixture kills Candida albicans biofilm cells; 120,000 compounds, 0.02% hits; C. albicans biofilm persisters + clotrimazole, fluorescence viability; primary screen in compound mixtures of four per well; inhibition, % at 7.6 µM;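 active means inhibition above 30.3% in the primary screen of four-compound pools, then above 30% when the compound was retested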;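 further: compounds exposed to preformed 24 h biofilms for 48 h; the number belongs to the whole pool; some results filed as inactive read as strong as hits; inactives centre near 12; 0% = biofilm with clotrimazole alone and 100% = kill control; retested singly at about 60 µM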
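Test system: C. albicans biofilms. Buffer or medium: RPMI/MOPS medium, pH 7.0. Timing: 48 h compound exposure at 37 °C. Technique: Alamar Blue fluorescence. Evaluation: percent inhibition of biofilm viability.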
Numbers without * were called inactive. Not all compounds are listed; the hit share may differ from the screen's.

Cc1cccc(N2CCN(C(=O)c3ccc(CNc4c(N5CCC(C)CC5)c(=O)c4=O)cc3)CC2C)c1 (configuration not stated) was read as Calb biofilm kill 19.2.
`O=C(NNS(=O)(=O)c1ccccc1)c1cnn(-c2ccc(Cl)cc2)c1C(F)(F)F` gave Calb biofilm kill 21.3.
O=C(N/N=C/c1ccc(OCCCF)cc1)c1ccc(C(F)(F)F)cc1 was read as Calb biofilm kill 7.5.
For CCCN1C(=O)/C(=C2\SC(=S)N(c3c(C)n(C)n(-c4ccccc4)c3=O)C2=O)c2ccccc21 the results were Calb biofilm kill 6.0.
For COc1ccc(CN=C2NC(=O)CC(C(=O)Nc3ccc([N+](=O)[O-])cc3C)S2)cc1 (configuration not stated) the results were Calb biofilm kill 8.8.
`CC(=O)N1N=C(c2ccc(Cl)cc2)OC1(C)C` gave Calb biofilm kill 17.2.
Screening COc1ccc(C2C(C(C)=O)=C(O)C(=O)N2Cc2cccnc2)cc1 (configuration not stated) returned Calb biofilm kill 9.3.
`COc1ccc(/C=C2/CCc3ccccc3C2=O)cc1CN1CCOCC1` gave Calb biofilm kill 9.4.
For CCOC(=O)c1ccc(NC(=O)NCc2ccc(OC)cc2)cc1 the results were Calb biofilm kill 11.1.
`CC(=O)Cn1c(=O)oc2ccccc21` gave Calb biofilm kill 5.0.
`O=C(c1ccc(Cl)cc1)n1c(NCc2ccccc2)n[nH]c1=S` gave Calb biofilm kill 4.2.
Screening CN(CC(=O)Nc1ccc(S(=O)(=O)N2CCCC2)cc1)Cc1ccc(Cl)cc1 returned Calb biofilm kill 17.5.
For CCCCNc1c(N)n(CCC)c(=O)[nH]c1=O the results were Calb biofilm kill 15.3.
For O=C(NCc1ccc2c(c1)OCO2)C1Cc2ccccc2CN1C(=O)c1ccco1 (configuration not stated) the results were Calb biofilm kill 1.8.
For CCN(CC)c1ccc2c(C)c(Cl)c(=O)oc2c1 the results were Calb biofilm kill 15.2.
Screening CCCCC(=O)Nc1nnc(CCOC)s1 returned Calb biofilm kill 15.2.
For Cc1ccc(-c2nc3[nH]c(=O)cc(NC(=O)C(C)C)n3n2)cc1 the results were Calb biofilm kill 6.2.
`CCOC(=O)c1ccc(Oc2nc(OC)cc(OC)n2)cc1` gave Calb biofilm kill 10.9.
Screening CSc1sc(C(=O)NCC2CC2)cc1S(=O)(=O)C(C)C returned Calb biofilm kill 26.7.
`COc1ccc(C2=NN(S(C)(=O)=O)C(c3cccs3)C2)cc1OC` (configuration not stated) gave Calb biofilm kill 21.0.

The final four entries of the part before come first, to join the parts:
For Cc1ccc(-c2nc3[nH]c(=O)cc(NC(=O)C(C)C)n3n2)cc1 the results were Calb biofilm kill 6.2.
`CCOC(=O)c1ccc(Oc2nc(OC)cc(OC)n2)cc1` gave Calb biofilm kill 10.9.
Screening CSc1sc(C(=O)NCC2CC2)cc1S(=O)(=O)C(C)C returned Calb biofilm kill 26.7.
`COc1ccc(C2=NN(S(C)(=O)=O)C(c3cccs3)C2)cc1OC` (configuration not stated) gave Calb biofilm kill 21.0.
For c1ccc2c(c1)OCCOCCOCCO2 the results were Calb biofilm kill 5.6.
C#CC(CC)(CC)NC(=S)Nc1ccc(S(N)(=O)=O)cc1 was read as Calb biofilm kill 13.2.
COc1ccc(NC(=O)CCCC2=NS(=O)(=O)c3ccccc3N2)cc1 was read as Calb biofilm kill 11.2.
COc1cc(-c2nnco2)cc(OC)c1OC was read as Calb biofilm kill 23.9.
For Cc1ccc(C(=O)C(=O)c2ccc(C)c(N)c2)cc1N the results were Calb biofilm kill 8.1.
`O=C(COC(=O)CCC(=O)c1ccc(F)cc1)Nc1ccc(F)cc1F` gave Calb biofilm kill -1.7.
`C=CCOCCN(C)C1=NS(=O)(=O)c2ccccc21` gave Calb biofilm kill 3.6.
Screening O=C(NC(c1ccccc1)c1ccccc1)C1(c2cccs2)CCOCC1 returned Calb biofilm kill 9.1.
`O=C(NC(=S)Nc1ccc(NC(=O)c2cccs2)cc1)c1ccco1` gave Calb biofilm kill 18.9.
For Brc1c(C[n+]2ccccc2)nc2ccccn12 the results were Calb biofilm kill -6.7.
`C=CCOC(=O)C1=C[C@@H](c2ccccc2)[C@H](CCCO)[C@@H](OCC)O1` gave Calb biofilm kill 21.0.
Screening Cc1ccc(S(=O)(=O)N(C)CCCC(=O)NC(C)(C)CO)cc1 returned Calb biofilm kill 8.2.
`CC(C)C[C@H](NC(=O)c1nc[nH]c1C(=O)NCC(=O)OC(C)(C)C)C(=O)OC(C)(C)C` gave Calb biofilm kill 19.1.
For COc1cc(/C=N/N=C2/NC(=O)C(CC(=O)O)S2)ccc1OCc1cccc(Cl)c1 (configuration not stated) the results were Calb biofilm kill 10.3.
Screening CCc1ccccc1N=C1S/C(=C/c2ccccc2OCC(=O)N2CCOCC2)C(=O)N1C returned Calb biofilm kill 15.5.
NC(=O)CC[C@@H]1NC(=O)[C@H](CO)NC(=O)c2cc([N+](=O)[O-])cc(I)c2NCCC[C@@H](C(N)=O)NC(=O)[C@H](Cc2ccc(O)cc2)NC1=O was read as Calb biofilm kill 14.4.
For C/C=C/C(=O)N1c2ccc(C)cc2C(C)=CC1(C)C the results were Calb biofilm kill 25.8.
For C=CCn1c(SCC(=O)N(C)C)nc2cc(C(=O)O)ccc2c1=O the results were Calb biofilm kill 8.7.
`Cc1cccc(C)c1NC(=O)CCCCCNS(=O)(=O)c1ccccc1` gave Calb biofilm kill 11.0.
CN(C(=O)c1cc2ccccc2oc1=O)C1(C)CCS(=O)(=O)C1 (configuration not stated) was read as Calb biofilm kill 12.2.
Screening O=C(COC(=O)c1cc(S(=O)(=O)N2CCOCC2)ccc1F)c1ccc[nH]1 returned Calb biofilm kill 14.5.
`O=[N+]([O-])c1cc(Cl)cc(/C=N/Nc2nc3ccccc3s2)c1O` gave Calb biofilm kill 20.0.
COc1ccc(Nc2nc(N)nc(CSC(=S)N3CCN(C)CC3)n2)cc1 was read as Calb biofilm kill 17.1.
For Cc1nc(N2CCCCC2)nc(N2CCCCC2)c1C=O the results were Calb biofilm kill 3.1.
`O=S1(=O)CCC(N=Cc2ccc(-c3ccc(Cl)cc3)o2)C1` (configuration not stated) gave Calb biofilm kill 14.9.
`COCCn1c(N)c(N(Cc2ccccc2)C(=O)c2oc3ccccc3c2C)c(=O)[nH]c1=O` gave Calb biofilm kill 6.7.
Cc1ccc(-n2c(-c3ccc(Cl)cc3)c[n+]3c2CCC3)cc1 was read as Calb biofilm kill 16.4.
CSCCCNC(=O)c1ccc(OC2CCN(CCc3ccccc3)CC2)cc1 was read as Calb biofilm kill 12.3.
`Cc1c(Cl)c([N+](=O)[O-])nn1CCCC(=O)Nc1ccc(Cl)cc1Cl` gave Calb biofilm kill 13.3.
Screening Cc1ccc(NC2(c3nnnn3-c3c(C)cccc3C)CCCCC2)cc1 returned Calb biofilm kill 6.8.
Screening Nc1cccn2c(-c3ccc(Cl)cc3)cnc12 returned Calb biofilm kill 12.8.
Screening COc1ccc(/C=C2\SC(=O)N(CCc3nnc(N)s3)C2=O)cc1 returned Calb biofilm kill 15.9.
For Cc1onc(-c2ccccc2)c1NC(=O)N(CCC#N)Cc1ccccc1 the results were Calb biofilm kill 14.9.
For O=S(=O)(Nc1cccc(S(=O)(=O)N2CCCCCC2)c1)c1ccccc1 the results were Calb biofilm kill 27.4.
For CCOc1cc(C=O)ccc1OS(=O)(=O)c1ccc(NC(C)=O)cc1 the results were Calb biofilm kill 10.0.
For O=C(NCC1OCCc2ccccc21)c1cc(COc2ccc(F)cc2Cl)on1 (configuration not stated) the results were Calb biofilm kill 15.4.
O=C(Nc1ccccc1Cc1ccccc1)c1ccc2c(c1)SC1=NS(=O)(=O)CCN12 was read as Calb biofilm kill 9.6.
Screening N#CC(C#N)=Cc1cccn1-c1ccc(C(=O)O)cc1 returned Calb biofilm kill 13.3.
`O=C(CSc1nnc(CNC(=O)C23CC4CC(CC(C4)C2)C3)n1-c1ccc(F)cc1)Nc1ccccc1` gave Calb biofilm kill 8.8.
Screening O=C(CSc1ccccc1C(=O)O)NCC1CCCCC1 returned Calb biofilm kill 7.0.
Cc1ccc(S(=O)(=O)CC(=O)c2cc(C)c(O)c(C)c2)cc1 was read as Calb biofilm kill 11.7.
CC[C@H](C)NC(=O)CCCCCn1c(=S)[nH]c2c([nH]c3ccc(OC)cc32)c1=O was read as Calb biofilm kill 10.7.
`CCCCC(=O)N=c1sc2c(OC)ccc(OC)c2n1C` gave Calb biofilm kill 24.4.
Screening O=C(/C=C/c1ccc(Br)o1)Nc1nccs1 returned Calb biofilm kill 8.0.
Screening Cc1cc(C)c2c(N)c(C(=O)NN3CC(=O)N(c4cccc(Cl)c4)CC3=O)sc2n1 returned Calb biofilm kill 22.9.
`O=C(CCCOc1ccc(Cl)cc1)Nc1cccc(C(=O)O)c1` gave Calb biofilm kill 24.5.
Screening Cc1ccc(N(CN2C(=O)c3ccccc3C2=O)C(=O)c2ccc([N+](=O)[O-])cc2[N+](=O)[O-])cc1 returned Calb biofilm kill 17.5.
COc1ccc(/C(N)=N/OC(=O)c2cccc([N+](=O)[O-])c2C)cc1 was read as Calb biofilm kill 9.2.
`CC(C)C[C@H](NC(=O)c1[nH]cnc1C(=O)N[C@@H](C)c1ccccc1)C(=O)OC(C)(C)C` gave Calb biofilm kill 13.1.
CC(=O)c1nn(-c2ccc(Br)cc2)cc1C(=O)c1ccco1 was read as Calb biofilm kill 12.9.
CC(OC(=O)c1ccc(S(=O)(=O)NCc2ccco2)cc1)C(=O)Nc1ccc(Cl)cn1 (configuration not stated) was read as Calb biofilm kill 15.4.
Screening O=C(O)c1cccc(NC(=S)NC(NC(=O)c2ccccc2[N+](=O)[O-])C(Cl)(Cl)Cl)c1 (configuration not stated) returned Calb biofilm kill 9.0.
For COC(=O)[C@H](C)NC(=O)NCCC1=CCCCC1 the results were Calb biofilm kill 18.2.
COc1cc(C(F)(F)F)nc2c(Br)c(C(C)(C)C)nn12 was read as Calb biofilm kill 8.1.
For Cc1ccc(S(=O)(=O)NC(=O)N2CCCN(Cc3ccc(F)cc3)CC2)cc1 the results were Calb biofilm kill 8.7.
`CC(NC(=O)NC12CC3CC(CC(C3)C1)C2)c1ccc2c(c1)OCO2` (configuration not stated) gave Calb biofilm kill 15.6.
Cc1cc(Cl)ccc1NC(=O)COC(=O)c1nc2nccc(C)n2n1 was read as Calb biofilm kill 15.6.
Screening CCN(CC)S(=O)(=O)c1ccc(C)c(NC(=O)COc2ccc3c(C)cc(=O)oc3c2)c1 returned Calb biofilm kill 10.2.
`Cc1cccc(NS(=O)(=O)c2cc(C(=O)N3CCCC3)ccc2Cl)c1` gave Calb biofilm kill 18.4.
`CCOC(=O)c1c(-c2ccccc2)csc1N1C(=O)Nc2ccccc2N1O` gave Calb biofilm kill 23.8.
CN1C/C(=C/c2cccnc2)C(=O)/C(=C/c2cccnc2)C1 was read as Calb biofilm kill 13.2.
Screening COc1ccc(C(=O)/C=C/c2cc(OC)c(O)c(OC)c2)c(F)c1 returned Calb biofilm kill 3.1.
CC(NC(=S)N1CCN(c2ccccc2)CC1)c1ccccc1 (configuration not stated) was read as Calb biofilm kill 14.3.
CC(C)(C)c1ccc(/C=N/NC(=O)C(=O)NCCCN2CCOCC2)cc1 was read as Calb biofilm kill 8.8.
Cc1ccc(-c2sc(-c3cccnc3)nc2CC(=O)O)cc1 was read as Calb biofilm kill 20.8.
CC(C)CNC(=O)Nc1ccc(F)c(Cl)c1 was read as Calb biofilm kill 8.5.
Screening Cc1cc2nc3n(c2cc1C)CC1CC(C(=O)NCCc2cccs2)N(C)C31 (configuration not stated) returned Calb biofilm kill 18.7.
O=C(/C=C/c1ccco1)Oc1cccc2cccnc12 was read as Calb biofilm kill 13.0.
`CCOC(=O)c1sc(NC(=O)Nc2ccccc2F)nc1C` gave Calb biofilm kill 9.5.
Screening CCN(CC)S(=O)(=O)c1ccc(N2CCOCC2)c(NS(=O)(=O)c2ccc(C(C)C)cc2)c1 returned Calb biofilm kill 13.3.
`CCCCNC(=O)CSc1nc2cc3c(cc2c(=O)n1CCCC(=O)NCCc1ccc(OC)c(OC)c1)OCO3` gave Calb biofilm kill 17.9.
CCN1/C(=C\c2ccc3ccccc3[n+]2CC)Sc2cc(C)ccc21 was read as Calb biofilm kill 31.3*.
O=C(c1cccc([N+](=O)[O-])c1)N(c1ccccn1)c1ccccn1 was read as Calb biofilm kill 14.8.
Cc1ccc(C(O)Cn2cc([N+](=O)[O-])nc2C)cc1 (configuration not stated) was read as Calb biofilm kill 26.6.
Screening COc1ccc(-c2ocnc2C(=O)N2CCN(C(c3ccccc3)c3ccccc3)CC2)cc1 returned Calb biofilm kill 3.1.
Screening O=C(Cn1cnc([N+](=O)[O-])n1)N/N=C/c1cccc2ccccc12 returned Calb biofilm kill 15.3.
`CC1CCCC(NC(=O)COC(=O)c2ccccc2Sc2ccccc2C#N)C1C` (configuration not stated) gave Calb biofilm kill 8.4.
Screening COc1ccc(CNC(=O)c2noc(C)c2[N+](=O)[O-])cc1 returned Calb biofilm kill 21.2.
`COc1ccccc1N1C(=O)[C@@H]2[C@H](C1=O)[C@H](C(=O)c1ccc(OC(C)=O)cc1)N1N=CC=C[C@@H]21` gave Calb biofilm kill 21.6.
Screening O=C(NCCCN1CCCC1)c1ccc2c(Cl)c3c(nc2c1)CCCC3 returned Calb biofilm kill 15.4.
Screening CCOC(=O)C1(CC2CC2)CCN(C(=O)c2cc(OC)nc3ccccc23)CC1 returned Calb biofilm kill 15.3.
Screening CCc1cccc(NC(=O)CCNS(=O)(=O)c2cccc3nonc23)c1 returned Calb biofilm kill 20.3.

By substructure, the compounds so far containing a tert-butyl group
`CC(C)C[C@H](NC(=O)c1nc[nH]c1C(=O)NCC(=O)OC(C)(C)C)C(=O)OC(C)(C)C` gave Calb biofilm kill 19.1.
`CC(C)C[C@H](NC(=O)c1[nH]cnc1C(=O)N[C@@H](C)c1ccccc1)C(=O)OC(C)(C)C` gave Calb biofilm kill 13.1.
COc1cc(C(F)(F)F)nc2c(Br)c(C(C)(C)C)nn12 was read as Calb biofilm kill 8.1.
CC(C)(C)c1ccc(/C=N/NC(=O)C(=O)NCCCN2CCOCC2)cc1 was read as Calb biofilm kill 8.8.
